High-throughput results (PubChem BioAssay)
hNpr1 antagonist = antagonists of human natriuretic peptide receptor Npr1; P16066; HEK293 hNpr1 GloSensor cGMP, ANP-stimulated luminescence; Potency, µM (highest dose often 46.3 µM), for inactives: at the highest dose activity change, negative = inhibition, hits mostly inhibitors; hit rate 1.6% among 76,000; AID 1347048; active = well fitted inhibition curve with a large enough effect; inconclusive = small, poorly fitted or top-dose-only effect; inactive = no such curve, though single readings can be large or run the other way;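 note: nearly all actives have a fitted effect of over 60% in size; nearly all hits also lower the signal before the agonist is added; a reference antagonist and vehicle were the controls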
Target sequence (P16066 whole entry, looked up): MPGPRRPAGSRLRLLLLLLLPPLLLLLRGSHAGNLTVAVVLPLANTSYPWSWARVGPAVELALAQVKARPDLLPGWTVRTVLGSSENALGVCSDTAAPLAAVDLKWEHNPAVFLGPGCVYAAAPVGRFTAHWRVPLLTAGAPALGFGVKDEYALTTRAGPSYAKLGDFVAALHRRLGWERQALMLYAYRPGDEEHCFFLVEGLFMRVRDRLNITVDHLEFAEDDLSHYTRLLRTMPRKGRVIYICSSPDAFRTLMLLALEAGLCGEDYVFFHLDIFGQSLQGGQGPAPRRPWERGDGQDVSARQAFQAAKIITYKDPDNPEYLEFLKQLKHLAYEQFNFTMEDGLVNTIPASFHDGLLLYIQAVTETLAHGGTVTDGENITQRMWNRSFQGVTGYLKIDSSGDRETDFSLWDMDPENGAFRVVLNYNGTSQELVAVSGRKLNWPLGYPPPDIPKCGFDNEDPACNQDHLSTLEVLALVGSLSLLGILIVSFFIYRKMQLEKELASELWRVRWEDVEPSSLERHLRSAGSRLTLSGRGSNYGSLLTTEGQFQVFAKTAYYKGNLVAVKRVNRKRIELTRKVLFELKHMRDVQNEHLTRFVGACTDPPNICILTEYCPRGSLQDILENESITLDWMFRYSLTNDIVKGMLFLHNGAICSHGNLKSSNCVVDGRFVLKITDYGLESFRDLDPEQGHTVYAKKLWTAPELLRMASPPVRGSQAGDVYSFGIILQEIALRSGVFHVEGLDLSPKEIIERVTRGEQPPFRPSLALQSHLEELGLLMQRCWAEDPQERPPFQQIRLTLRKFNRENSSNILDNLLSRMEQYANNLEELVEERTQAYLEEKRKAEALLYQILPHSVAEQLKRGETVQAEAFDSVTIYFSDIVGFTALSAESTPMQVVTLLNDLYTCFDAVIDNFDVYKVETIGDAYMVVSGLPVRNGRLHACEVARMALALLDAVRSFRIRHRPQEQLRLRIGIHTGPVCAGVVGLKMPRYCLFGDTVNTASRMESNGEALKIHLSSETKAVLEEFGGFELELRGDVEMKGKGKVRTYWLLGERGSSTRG
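Compound pre-incubated 30 min at room temperature on GloSensor-loaded HEK293 cells stably carrying hNpr1 and the pGS-40F cGMP biosensor. Stimulation uses hNppA at 0.1 nM final; luminescence is taken at baseline and 20 min post-agonist.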
An asterisk follows results filed as active; ? = inconclusive; & = joins results of further samples; [ ] = dose if it differs, or a comment. % is set by controls: 0 for no effect and ±100 for the full control effect; potency is the fitted concentration of half-maximal effect.

SMILES	hNpr1 antagonist
COCCN1CCC(N2CCN(S(=O)(=O)c3cc(F)ccc3C)CC2)C1=O (configuration not stated)	3.7%
O=C(Cn1ccn2nc(-c3ccc(F)cc3)c(CO)c2c1=O)NCc1ccccc1Cl	-5.0%
CCc1noc(-c2cn(C3CCN(C(=O)c4sccc4C)CC3)nn2)n1	8.5%
COc1ccc(Nc2cc(-c3cccs3)nc3c(C)noc23)cc1OC	-20.6%[70.6 µM]
Cc1cnc(C(=O)N2CCc3ccc(S(=O)(=O)Nc4cccnc4)cc3C2)cn1	0.5%
C=CCN1C[C@@]2(C(=O)O)CN(c3ncnc4[nH]ccc34)C[C@H]2C1=O	2.2%
O=C(C1CC1)N1CCC(O)(c2csc(CN3CCc4ccccc4C3)n2)CC1	4.0%[70.6 µM]
COCc1c(C(=O)NCCn2c(C)cnc2C2CC2)noc1C	-3.2%
O=C(Cc1c[nH]c2ccccc12)NCC(=O)N1CCCCCCNC(=O)CC1c1ccccc1 (configuration not stated)	-1.6%
Cc1ccccc1C(=O)N1C(C(=O)NCC2CCCO2)COC12CCC(C)CC2 (configuration not stated)	1.9%
COCCCNC(=O)c1cc2c(=O)[nH]c(-c3ccccc3)cn2n1	-0.9%
COc1ccc(CNC(=O)Cn2c(C)cc3nc4n(c(=O)c32)CCCC4)cc1	2.1%
Cc1ccc(C(=O)N2CCC(c3n[nH]c(=O)n3-c3ccccc3)CC2)cc1C	-8.3%
COC(=O)CNC(=O)N1CCCN(Cc2ccncc2)C(c2ccccc2)CC(=O)NCC1 (configuration not stated)	0.9%
COc1cccc(-c2cc(C3CCN(C(=O)Nc4ccc(OC)cc4OC)CC3)[nH]n2)c1	-4.4%
COCC(=O)N1CCC(N2C[C@H](O)C[C@H]2C(=O)NCc2cccc(OC)c2)CC1	7.3%
Cc1ccccc1C(=O)NC(C(=O)N1CCCCC1)C1CCN(C(=O)CC(C)(C)C)CC1 (configuration not stated)	0.0%
COCc1ncc(C)n1CC1CCN(C(=O)C2(c3ccc(OC)cc3)CC2)CC1	-1.1%
CCc1cccc(NC(=O)N2CCCC(Cn3cnc4cccnc43)C2)c1 (configuration not stated)	-0.8%
COCCOc1ccc(-c2nc(C)ccc2OC)cc1	0.9%
Cc1ccc(CN2C(=O)COC[C@H]2C(=O)NC2CC2)cc1	0.9%
COc1cccc(C(CC(=O)NCCc2ccc(OC)c(OC)c2)c2c[nH]c3ccccc23)c1 (configuration not stated)	?
CCN(CC)c1ncccc1CNC(=O)c1coc2c1C(=O)CCC2	-5.7%
c1cncc(-c2ccnc(NCC(c3cccnc3)N3CCCCC3)n2)c1 (configuration not stated)	-1.2%
COCc1noc([C@@H]2CC(F)(F)CN2C(=O)C2(C)CC2)n1	1.3%
CCCc1ccc(S(=O)(=O)N2CCC3(CC2)C(=O)N(CC)c2ccccc23)cc1	4.1%
COc1cc2c(cc1OC)C(CNC(=O)CC(C)C)N(C(=O)Nc1ccccc1)CC2 (configuration not stated)	1.4%
O=C(CN1CCN(c2cc(C3CC(O)C3)ncn2)CC1)N1CCCC1 (configuration not stated)	5.2%
O=C1NCCCCCN(C(=O)NC2CCCCC2)[C@H]2CCC[C@@H]12	-2.6%
Cc1ccc(OCC(=O)c2ccc3c(c2)N(C(C)C(=O)NCC2CC2)C(=O)CO3)cc1C (configuration not stated)	-1.4%
COCCCNC(=O)C1CCN(c2cnc3nccnc3c2)CC1	6.1%
COc1ccc(CN2Cc3[nH]nc(-c4ccccc4Cl)c3CC2=O)cc1	-14.7%[70.6 µM]
Cn1cncc1-c1nnc([C@H]2CCN(Cc3cccc(C#N)c3)C2)o1	4.2%[70.6 µM]
O=C(c1ccc2[nH]ncc2c1)N1CCOCC12CCN(CCCc1ccccc1)CC2	?
O=C(NCCc1ccncc1)C1CN(C(=O)Cc2ccc(Cl)cc2)CC12CCOCC2 (configuration not stated)	0.5%
COc1ccc(Cl)cc1NC(=O)Cn1c(N(C)Cc2ccccc2)nc(C)cc1=O	-11.9%
O=C1NCCCCCCN(C(=O)c2cccs2)[C@H]2CCC[C@@H]12	4.8%
COCC1CN(C2CCC2)CC12CCN(C(=O)c1nccc3ccccc13)CC2 (configuration not stated)	-19.7%
COC(=O)c1ccc(NC(=O)Cn2c(C)cc3nc4n(c(=O)c32)CCC4)cc1	1.7%
COc1cccc(CNC(=O)[C@@H]2C[C@@H](O)CN2C2CCN(C(=O)c3ccco3)CC2)c1	4.0%
COc1cccc(CNC(=O)c2c[nH]c3ncccc23)c1	5.4%[70.6 µM]
CC(C)CNC(=O)C1c2ccccc2C(=O)N(C2CCCC2)C12CCCC2 (configuration not stated)	-12.4%
CN1CCCCCCN(CC2CCCCC2)[C@H]2CCC[C@H]2C1=O	-17.9%
Cc1cnc(-c2ccccc2)n1CCN	6.1%
O=C(c1ccc(F)cc1F)N1CCC2(CC1)OCC(C(=O)N1CCCC1)N2C(=O)c1ccco1 (configuration not stated)	1.5%
Cc1nn(CC(=O)N[C@H](C)c2ccccc2)c(=O)n1-c1ccc2c(c1)OCO2	-2.0%
Cc1ccc(Cn2c(C3CCN(C(=O)COc4cccc(C)c4)CC3)n[nH]c2=O)cc1	-0.9%
COc1ccc(C(=O)NC2CCN(c3cc(-c4ccc(Cl)cc4)[nH]n3)C2)c(OC)c1 (configuration not stated)	-26.7%
Cc1ccc(NC2=N[C@H]3[C@@H](O)[C@H](O)C[C@H](C(=O)NCc4cccnc4)[C@H]3S2)cc1	-0.7%[70.6 µM]
CCO[C@H]1CN(C(=O)c2ccc(NS(=O)(=O)CC)cc2)C[C@@H]1O	-1.0%
COc1ccc(-c2nc(C3CN(C(=O)Nc4cccc(F)c4)C3)no2)cc1	?
Cc1ccc(CNC(=O)[C@H]2CCC[C@H]2NC(=O)c2ccncc2)cc1	-7.5%
CO[C@@H]1COCC[C@H]1NC(=O)c1cccc(Oc2ccccc2)c1	-6.4%
CCOc1ccccc1CNC(=O)c1cc2n(n1)CC(c1ccc(Cl)cc1)OC2 (configuration not stated)	-29.9%
CN(C)Cc1cn2c(=O)n(C)cc(-c3ccc(F)c(Cl)c3)c2n1	4.6%[70.6 µM]
O=C(c1ccoc1)N1CCC(c2n[nH]c(=O)n2-c2ccccc2)CC1	3.5%
CC(=O)NC1(C)CCCN(Cc2cccc(-c3cccc(F)c3)c2)C1 (configuration not stated)	-1.0%[70.6 µM]
CC(C)N1CCN(C(=O)c2ccc(N3CC4CC(C3)[C@H]3CCCC(=O)N3C4)nc2)CC1 (some centres not stated)	1.2%
NC(=O)Cn1ccc2cc(OCC3CCN(C(=O)CCc4ccccc4)CC3)cnc21	-19.2%[70.6 µM]
O=C(NCc1cccc(Cl)c1)C1CN(c2ccc(F)cc2)C(=O)N1 (configuration not stated)	17.3%

Seven entries from above, reformatted:
hNpr1 antagonist	compound
-29.9%	CCOc1ccccc1CNC(=O)c1cc2n(n1)CC(c1ccc(Cl)cc1)OC2 (configuration not stated)
17.3%	O=C(NCc1cccc(Cl)c1)C1CN(c2ccc(F)cc2)C(=O)N1 (configuration not stated)
-0.7%[70.6 µM]	Cc1ccc(NC2=N[C@H]3[C@@H](O)[C@H](O)C[C@H](C(=O)NCc4cccnc4)[C@H]3S2)cc1
-6.4%	CO[C@@H]1COCC[C@H]1NC(=O)c1cccc(Oc2ccccc2)c1
-1.0%	CCO[C@H]1CN(C(=O)c2ccc(NS(=O)(=O)CC)cc2)C[C@@H]1O
-0.9%	Cc1ccc(Cn2c(C3CCN(C(=O)COc4cccc(C)c4)CC3)n[nH]c2=O)cc1
-2.0%	Cc1nn(CC(=O)N[C@H](C)c2ccccc2)c(=O)n1-c1ccc2c(c1)OCO2

Remaining list, next part:
SMILES	hNpr1 antagonist
O=C(C1CCCC1)N1CCC(c2noc(-c3ccncc3)n2)C1 (configuration not stated)	-2.8%
CC[C@H]1CN(C(=O)C(C)(C)C)CC[C@H]1CC(=O)O	-1.4%[70.6 µM]
COC[C@@H]1CN(C(=O)Cc2ccccc2C)C[C@H]1c1ccncc1	1.3%
CCN1c2cc(C(=O)Nc3ccc(F)c(Cl)c3)ccc2C(=O)N2CCCCCC21 (configuration not stated)	-7.3%
COCCN1C(=O)CS(=O)(=O)C12CCN(C(=O)Cc1cccc(F)c1)CC2	-7.1%
Cn1nccc1CN1CCC2(CC1)CC(=O)Nc1ccccc1O2	0.0%[70.6 µM]
COC1C(=O)N(C2CCN(C(=O)c3cnccn3)CC2)C12CCOCC2 (configuration not stated)	9.5%
Cc1ccc(C(=O)N2C[C@@H](Oc3ccccc3)C[C@H]2C(=O)N2CCOCC2)cn1	6.8%
COc1ccccc1NC(=O)[C@@H]1COCC(=O)N1Cc1ccc(OC)c(OC)c1	-9.3%
Cc1nnc2n1C(C)CN(C(=O)CCc1nc(-c3ccncc3)no1)C2 (configuration not stated)	1.4%
CC(=O)Nc1nc2c(s1)C[C@@H]1[C@](C)(CO)[C@H](O)CC[C@@]1(C)[C@@H]2CC(=O)N1CCOCC1	-7.0%
COc1cncc([C@@H](NC(=O)CCN2CCCCO2)C2CC(O)C2)c1 (some centres not stated)	-0.4%&-2.6%
Cc1noc(-c2ccc(C(C)(C)C)cc2)c1C(=O)NCCOc1ccccc1	-3.6%
CN(C)C(=O)CN1C(=O)CO[C@H](c2ccc(NC(=O)Nc3ccccc3)cc2)[C@H]1CO	3.0%[70.6 µM]
COC[C@H]1CCCN1Cc1nc(C2(O)CCN(CC(C)C)CC2)cs1	7.3%[70.6 µM]
O=C(c1ccncc1)N1CCC2(CC1)CC(c1ccccc1)C(=O)N(C1CC1)C2 (configuration not stated)	0.8%
CCNC(=O)N1CC(C(=O)NCc2cccc(C)c2)CC(c2ccc(F)c(C)c2)C1 (configuration not stated)	22.4µM*
CC(=O)N1CCN(c2nc3c(s2)CC(C(=O)NCCC2CCN(C)CC2)CC3)CC1 (configuration not stated)	9.7%
COc1ccc(CCC(=O)NCC2Cn3cccc3C(=O)N2C)cc1 (configuration not stated)	0.9%
COC[C@H]1CCCN1[C@@H]1[C@H](O)[C@H](CO)O[C@@H]1CNCc1cccc(Cl)c1	5.1%
C=CCNC(=O)[C@@H]1CCCN1[C@@H](C(=O)NC)c1ccccc1F	-2.3%[70.6 µM]
O=C(Nc1cccc(Cl)c1)N[C@H]1C[C@H]2C(=O)NC[C@@H](CCC(=O)N3CCc4ccccc43)N2C1	5.2%
COCCN1Cc2[nH]nc(-c3cccc(COC)c3)c2CC1=O	1.0%[70.6 µM]
Cc1noc2ccc(-c3ccc(CO)cc3)nc12	6.4%[70.6 µM]
c1ccc(Nc2cnc3ccc(N4CCOCC4)nn23)cc1	-16.8%[70.6 µM]
O=C1CCCCC(Cc2ccccc2)(C(=O)Nc2cccnc2)N1 (configuration not stated)	-13.2%
COCCNC(=O)c1ccc(-c2ncc3cnc(-c4cccc(F)c4)cn23)cc1	-3.5%[70.6 µM]
COc1ccccc1CN1CCN(C(=O)CCC[C@H]2NC[C@@H]3C[C@H]2CN(Cc2ccccc2)C3)CC1	-15.5%
COC(=O)CNC(=O)N1CCC(c2nc(CCOc3ccc(F)cc3)no2)C1 (configuration not stated)	15.0%
COc1ccc(CN2CCOc3nc(-c4cccc(NC(C)=O)c4)ncc3C2=O)cc1	-19.9%[70.6 µM]

Part of the list above in another layout.
COCCNC(=O)c1ccc(-c2ncc3cnc(-c4cccc(F)c4)cn23)cc1
  hNpr1 antagonist: -3.5%[70.6 µM]
O=C(c1ccncc1)N1CCC2(CC1)CC(c1ccccc1)C(=O)N(C1CC1)C2 (configuration not stated)
  hNpr1 antagonist: 0.8%
c1ccc(Nc2cnc3ccc(N4CCOCC4)nn23)cc1
  hNpr1 antagonist: -16.8%[70.6 µM]

(next part)
SMILES	hNpr1 antagonist
O=C(Cc1ccccc1F)NC1CCN(c2cc(-c3ccccc3)[nH]n2)CC1	-18.3%
Cc1ccc(C)c(S(=O)(=O)N2CCCCC2c2noc(COCC3CC3)n2)c1 (configuration not stated)	-19.1%
CN1C(=O)CCC2(CNC(=O)C3CCC3)CCCC=C12 (configuration not stated)	11.1%
CC(C)n1cc(C(=O)N2CC[C@H](N3CCOCC3)[C@H](CCC(=O)O)C2)cn1	-7.7%
CC(=O)N1CCN(CC[C@H]2CN(C(=O)c3ccc(C(F)(F)F)cc3)CC[C@H]2CC(=O)O)CC1	7.1%
C=CCNC(=O)C1CCCN(S(C)(=O)=O)CCC(=O)NCC1 (configuration not stated)	2.0%
O=C1CC(c2ccccc2)N(C(=O)CNC(=O)c2ccncc2)CCCCCCN1 (configuration not stated)	-2.3%
CCOCCOC1CCN(S(=O)(=O)c2cnn(CC)c2)CC1	12.7%
O=C(c1ccco1)N1CCC(C2CCN(Cc3cccnc3)CC2)C1 (configuration not stated)	12.1%
CS(=O)(=O)N1CCC(CC(=O)N2CCCC2)C1 (configuration not stated)	-5.2%
COc1cccc(CC(=O)N2CCc3nnc([C@@H]4C[C@@H](O)CN4C(C)C)n3CC2)c1	-0.9%
O=C(Nc1ccc(C(F)(F)F)cc1)N1CCCC(Cn2cnc3cccnc32)C1 (configuration not stated)	-6.1%
N#Cc1cccc(C(=O)N2CCC3(CC2)CC(Cc2ccc(F)cc2)CCO3)c1 (configuration not stated)	-30.2%
Cc1ccc(C)c(NC(=O)Cn2ccn3nc4c(c3c2=O)CCCCC4)c1	-0.6%
COCc1ccc2c(c1)c(OC(C)(C)C(=O)NC1CC1)nn2Cc1ccccc1	1.0%[70.6 µM]
O=C(NCCC1CCN(C(=O)Nc2cccc(F)c2)CC1)c1ccccc1	2.1%
Cc1cc(C(=O)N[C@H](C)c2onc(-c3cccnc3)c2C(=O)O)no1	-0.1%[70.6 µM]
CCN(CC)CC[C@H]1CN(C(=O)c2ccc(OC)cc2)CC[C@H]1CC(=O)O	-20.8%[70.6 µM]
COCCNC(=O)c1ccc(OC)cc1OC1CCN(Cc2cccc3cccnc23)CC1	-1.5%
NC1CCCCN(Cc2cc(-c3ccccc3OC(F)(F)F)no2)C1 (configuration not stated)	-1.8%

Some of the compounds tested. The share of hits here may be higher or lower than overall.
